# Assay outcomes: PubChem BioAssay, National Center for Advancing Translational Sciences (NCATS)
# D2 potentiator – human D2 receptor positive allosteric modulation | P14416 | DiscoveRx D2 beta-arrestin cells, luminescence, 90 min; 100% = 57 uM dopamine signal | potentiation, % (concentration not given with the values) | actives 0.23% (n = 360,000); active = potentiation of 50% or more; inconclusive = 30% to 50%; inactive = 30% or less;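 note: compound concentration not given in the record; tested on top of an EC20 dose of dopamine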
#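 D2 cells co-treated with compound plus 50 nM dopamine (EC20) for 90 min at 37 deg C to detect potentiation. Beta-arrestin recruitment was read as enzyme-fragment luminescence after 1 h at ambient temperature. Full response was set by 57 uM dopamine.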
# D2 agonist – agonists of human D2 dopamine receptor (beta-arrestin); actives 0.084% (n = 360,000); P14416; DiscoveRx PathHunter D2 beta-arrestin, luminescence, 90 min; 100% = 57 uM dopamine signal; activation, % (test concentration not listed); in the data active = activation above about 40%; inconclusive = about 15% to 40%; inactive = below about 15%; note: compound concentration not given in the record; the text of the record calls up to 30% inactive
#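 Agonist mode: compounds alone added to overnight-plated D2 PathHunter cells for 90 min at 37 C, with 57 uM final dopamine (EC100) defining full response. Beta-arrestin recruitment detected by chemiluminescent reagent, read after 1 h at ambient temperature.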
# Six1-Eya2 blk – blocks human Six1 binding to Eya2. Q15475+O00167. AlphaScreen GST-Six1/His-Eya2 binding, biochemical; hits give low values; control for the full effect not named in the record. activity change, % (concentration not given with the values). actives 0.56% (n = 360,000). AID 651725; in the data active = activity change below about -65%; inconclusive = about -30% to -65%; inactive = above about -30%; note: % is set by controls: 0 for no effect and ±100 for the full control effect
# Target sequence (O00167 whole entry, looked up): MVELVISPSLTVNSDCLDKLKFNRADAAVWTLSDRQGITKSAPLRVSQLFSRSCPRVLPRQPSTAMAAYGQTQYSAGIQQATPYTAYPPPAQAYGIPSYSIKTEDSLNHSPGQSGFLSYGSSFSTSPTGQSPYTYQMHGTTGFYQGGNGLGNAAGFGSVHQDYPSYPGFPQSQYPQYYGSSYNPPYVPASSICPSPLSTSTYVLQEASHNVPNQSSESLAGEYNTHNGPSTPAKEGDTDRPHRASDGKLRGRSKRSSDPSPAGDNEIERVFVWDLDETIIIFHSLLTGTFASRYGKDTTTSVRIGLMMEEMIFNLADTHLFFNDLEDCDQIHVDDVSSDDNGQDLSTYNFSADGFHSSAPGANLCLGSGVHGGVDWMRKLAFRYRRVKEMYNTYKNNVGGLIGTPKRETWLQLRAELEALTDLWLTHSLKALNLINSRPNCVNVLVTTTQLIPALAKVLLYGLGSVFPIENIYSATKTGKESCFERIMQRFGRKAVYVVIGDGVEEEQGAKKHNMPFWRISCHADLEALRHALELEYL
# Target sequence (Q15475 whole entry, looked up): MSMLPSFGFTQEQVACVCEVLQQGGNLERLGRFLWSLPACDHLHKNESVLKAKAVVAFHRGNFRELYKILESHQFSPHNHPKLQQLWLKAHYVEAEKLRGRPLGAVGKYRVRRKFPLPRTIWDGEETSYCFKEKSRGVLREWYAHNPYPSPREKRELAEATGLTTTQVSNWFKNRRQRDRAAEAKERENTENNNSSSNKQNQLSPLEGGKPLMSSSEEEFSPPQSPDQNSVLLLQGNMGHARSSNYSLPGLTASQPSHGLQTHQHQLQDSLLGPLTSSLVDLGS
#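 GST-Six1 + His-Eya2 (5X stock: 250/500 nM); Tris pH 8.0, 300 mM NaCl, 0.05% BSA, 0.02% Tween 20; GSH donor/Ni acceptor beads; 1 h 37 °C dark; AlphaScreen readout.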
# TRPML1 blocker – blocks the human TRPML1 channel; Q9GZU1; AID 624415; actives 0.02% (n = 390,000); TRPML1-inducible cells, Ca2+ dye fluorescence, FDSS; hits give low values; inhibition of EC80 agonist-evoked calcium signal; activity change, negative = inhibition, % (test concentration not listed); in the data active means activity change below about -50%; inconclusive means about -30% to -50%; inactive means above about -30%;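 note: stimulus is agonist 54-4 at its EC80 concentration; % is set by controls: 0 for no effect and ±100 for the full control effect; compound concentration not given in the record; the text of the record puts the active cut at -80%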
#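 Tet-induced TRPML1-DL cells loaded with Ca8 no-wash calcium dye were read kinetically on FDSS. Compound addition was followed by EC80 agonist 54-4 (4 uM final); inhibition was read over 110 s.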
# TRPML1 ag – human mucolipin-1 channel agonism; actives 0.12% (n = 410,000); TRPML1-expressing cells, Ca2+ dye fluorescence, FDSS; host cell line not named in the record; reference of the full effect not given here; activation, % (no concentration beside the values); Q9GZU1; in the data active = activation above about 50%; inconclusive = about 30% to 50%; inactive = below about 30%; note: 0% is about no effect; the text of the record puts the active cut at 80%
#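 Agonist activity was taken from a 110 s kinetic Ca2+ dye read on the FDSS after pinning compounds onto TRPML1-DL cells. The cells were seeded at 1,500/well with Tet inducer, incubated about 16 h, then dye-loaded at room temperature.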
# PINK1 modulator – changes PINK1 expression; PINK1 immunofluorescence, high-content cytometry, 24 h; Potency, µM (series often up to 76.6 µM), for the others: at the highest dose activation (PINK1 increase), actives largely listed as activators; actives 0.2% (n = 410,000); AID 624263; active = well fitted activation curve with a large enough effect; inconclusive = small, poorly fitted or top-dose-only effect; inactive = flat fitted curve, though single readings scatter; cell line not stated here;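 note: potency is the fitted concentration of half-maximal effect; % of control where 0% means no effect; nearly all actives have a fitted effect of over 65% in size; a mitochondrial uncoupler was the plate control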
#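 Readout is PINK1 immunofluorescence, quantified alongside mitochondrial, cell and nuclear markers by laser-scanning microplate cytometry. Cells from a stable line were exposed to compound titrations (5 concentrations) for 24 hours, with CCCP controls.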
# * = called active by the depositor; u = inconclusive; x = not tested or not shown; [ ] = dose if it differs, or a comment.
SMILES,D2 potentiator,D2 agonist,Six1-Eya2 blk,TRPML1 blocker,TRPML1 ag,PINK1 modulator
CSc1nnc(C)c(/C=C/Nc2ccc(Cl)cc2)n1,-15,-1.2,-71*,11,8.1,-0.2%
CN(C)S(=O)(=O)c1ccc(NC(=O)CN2CCN(C(c3ccccc3)c3ccccc3)CC2)cc1,-8,0.1,1,-4,1.7,15%
O=S(=O)(c1ccc(S(=O)(=O)N2CCCC2)cc1)N1CCCCC1,-2,0.5,-4,-5,5.1,1.4%
Nc1ncnc2c1ncn2[C@@H]1O[C@H](CO)[C@@H](O)[C@H]1O,-5,2.8,-3,-1,0.1,5.2%
COCCCNC(=S)Nc1cccc2ncccc12,26,4.6,-2,-14,0.1,-1.4%
Cc1cc(/C=C2/NC(=O)N(Cc3ccccc3F)C2=O)c(C)n1C(C)C,3,1.3,-17,23,1.1,1.3%
COc1ccccc1C(=O)NC(C(=O)NCCc1nc2ccccc2[nH]1)=C(C)C,-18,-7.4,-1,0,-0.9,0.1%
COC(=O)c1c(NC(=O)Cc2ccccc2)sc2c1C(C(=O)OC)CC2 (stereo not given),-13,0.5,0,-2,1.7,2.3%
COc1ccc(C)cc1NC(=O)c1cc(S(=O)(=O)N2CCCC2)cn1C,-7,1.2,-5,28,0.2,0.3%
CCOc1ccc(C(=O)O[C@H]2[C@H](Cc3ccccc3)NS(=O)(=O)[C@H]3C[C@@H]4C=C[C@]23O4)cc1,3,-1.1,-2,-2,0.7,1.4%
COc1ccc(CCNC(=O)c2ccc(NS(=O)(=O)c3ccc4[nH]c(=O)[nH]c4c3)cc2)cc1,u,0.2,-8,22,-1.1,3.1%
O=C(CCN1CCN(C(=O)c2ccccc2)CC1)c1ccc(Br)cc1,-13,-1.3,7,-22,-0.1,0.5%
Cc1cc(F)ccc1NS(=O)(=O)c1ccc(-n2cccn2)cc1,x,x,x,16,0.3,1.9%
COc1ccc(CCNC(=O)C(=O)NCC(c2ccco2)S(=O)(=O)c2cccs2)cc1 (stereo not given),x,x,x,22,0.0,-0.5%
COc1ccc(OC)c(C(=O)COC(=O)c2c(OC)cccc2OC)c1,-8,-2.8,3,1,-1.2,2.6%
O=C1C(Cl)=C(N2CCN(Cc3ccccc3)CC2)C(=O)N1Cc1ccccc1,-20,0.6,24,-6,2.1,-1.8%
COCCCNc1nc(N)c([N+](=O)[O-])c(N2CCCCCC2)n1,-6,-2.5,-3,32,-0.7,-0.2%
CCN1C(=O)NC(c2cccnc2)C(C(=O)OC)=C1C (stereo not given),-13,-1.7,-1,-11,1.2,1.7%[38.3 µM]
O=C(Nc1nc(-c2ccc3c(c2)Cc2ccccc2-3)cs1)c1ccccc1,-9,-0.9,5,-13,-0.6,13%
COc1ccc(CCNC(=O)C2CCCN(c3nn4c(=O)cc(C)nc4s3)C2)cc1OC (stereo not given),-9,-0.1,4,-4,0.2,0.7%

# Continued (six carried over from the part before).
SMILES,D2 potentiator,D2 agonist,Six1-Eya2 blk,TRPML1 blocker,TRPML1 ag,PINK1 modulator
COc1ccc(OC)c(C(=O)COC(=O)c2c(OC)cccc2OC)c1,-8,-2.8,3,1,-1.2,2.6%
O=C1C(Cl)=C(N2CCN(Cc3ccccc3)CC2)C(=O)N1Cc1ccccc1,-20,0.6,24,-6,2.1,-1.8%
COCCCNc1nc(N)c([N+](=O)[O-])c(N2CCCCCC2)n1,-6,-2.5,-3,32,-0.7,-0.2%
CCN1C(=O)NC(c2cccnc2)C(C(=O)OC)=C1C (stereo not given),-13,-1.7,-1,-11,1.2,1.7%[38.3 µM]
O=C(Nc1nc(-c2ccc3c(c2)Cc2ccccc2-3)cs1)c1ccccc1,-9,-0.9,5,-13,-0.6,13%
COc1ccc(CCNC(=O)C2CCCN(c3nn4c(=O)cc(C)nc4s3)C2)cc1OC (stereo not given),-9,-0.1,4,-4,0.2,0.7%
COc1cc(C)c(Br)cc1S(=O)(=O)N1CCOCC1,-22,-3.7,-5,-6,0.7,-2.9%
Cc1ccc(S(=O)(=O)N2CC3(C)CN(S(=O)(=O)c4ccc(C)cc4)CC(C)(C2)C3)cc1,-10,-1.6,2,-2,-0.7,17%[38.3 µM]
Cc1ccc(NC(=S)NC2CC3CCC(C2)N3Cc2ccco2)cc1C (stereo not given),-27,-1.5,-4,-3,0.0,-1.3%[38.3 µM]
CCCCCC(=O)N1C[C@@H](O)[C@H](n2cc(-c3ccc(F)cc3)nn2)C[C@@H]1c1ccc(Cl)cc1,-3,-0.9,-10,34,1.8,u
O=C(c1ccc(S(=O)(=O)Cc2ccccc2F)c([N+](=O)[O-])c1)N1CCCC1,18,5.1,-3,-3,0.3,3.5%
O=C(Nc1nccs1)c1cc2c(s1)CCCCC2,-11,3.2,-4,2,1.9,0.4%
N/C(=N\OC(=O)c1cccc(Cl)c1)c1cccnc1,138*,u,4,-10,0.6,4.7%
S=C(Nc1ccc(Br)cc1Cl)NN1CCOCC1,-2,5.8,-7,2,1.6,-2.6%
COCCn1c(CCC(=O)Nc2ccc(OC)c(OC)c2)nc2cccnc21,x,x,x,-4,0.8,1.4%
CC1(C)CC2CC(C)(CN2S(=O)(=O)c2ccc(F)cc2F)C1 (stereo not given),-6,-1.8,16,36,1.7,3.1%
O=C(NOCc1ccccc1)c1ccc(Cl)cc1Cl,-2,2.0,-3,21,2.0,0.3%
COc1ccc(-c2nc(N3CCC(C)CC3)[nH]c(=O)c2C#N)cc1,-28,1.6,4,21,-0.3,x
O=[N+]([O-])c1ccc(NCc2ccc3c(c2)OCO3)cc1,-4,0.5,-9,15,2.3,-0.3%
Cc1nn(-c2ccccc2)c(Cl)c1C(=O)NCCN(C)C,-10,0.6,-2,3,0.7,-0.8%
CN(C)c1ccc(C(=O)/C=C/c2cccnc2)cc1,-13,-3.3,-9,x,x,-1.3%
OCCNc1cc(-n2nc(-c3ccccc3)cc2-c2ccccc2)ncn1,-8,-0.4,-7,10,-1.1,-1.0%
CN(C)C(=S)NC1(C)CCS(=O)(=O)C1 (stereo not given),-1,-1.2,8,11,0.1,3.9%
O=C(CCCOC(=O)c1ccc(O)cc1)c1ccccc1,3,-0.1,-4,3,2.4,1.2%
CCc1ccc(Oc2c(C(F)(F)F)oc3c(CN4CCN(CC)CC4)c(O)ccc3c2=O)cc1,x,x,x,16,0.7,0.5%
COc1cc(/C=C/C(=O)O)cc(S(=O)(=O)NNC(=O)c2cc(C)oc2C)c1OC,-7,-3.1,-19,-5,-0.3,0.6%
O=C(c1cn(CCOc2ccc(Cl)cc2)c2ccccc12)C1CCCCC1,x,x,x,64,1.2,-0.5%
Cc1ccc(NC(=O)C2CCCN2C(=O)c2cccs2)c(C)c1 (stereo not given),-1,-4.4,3,6,0.3,1.6%
C=CCNc1nc(N)c([N+](=O)[O-])c(NCc2ccccc2)n1,-6,3.9,2,-9,2.1,14%
Cc1cc(OCc2cn3cccnc3n2)ccc1Cl,-8,2.5,1,-18,0.6,2.2%
CCn1c(SCC(=O)Nc2cc(NC(C)=O)ccc2OC)nnc1-c1cccnc1,7,1.5,3,12,4.8,0.1%[38.3 µM]
CCSC1=NC2(CCN(C(=O)NC3CCCCC3)CC2)N=C1c1ccc(OC)cc1,x,x,x,-21,-0.2,2.3%
Cc1cc(C)n(CC2CC(=O)N(c3ccccc3)C2=O)n1 (stereo not given),2,4.8,0,7,2.7,-0.3%
O=C(CCCc1ccccc1)NC1CC(=O)N(c2ccc(F)cc2)C1 (stereo not given),x,x,x,1,0.4,0.7%
COc1cccc(C=NCCCN=Cc2cccc(OC)c2O)c1O,-3,3.3,6,6,-0.8,2.1%
COc1ccc(NC(=O)CN(C)CC(=O)NCCc2ccc(F)cc2)cc1,-35,-4.4,0,-6,-0.4,-0.3%
CCN(CC(=O)Nc1c(F)cccc1F)C(=O)CNC(=O)c1ccc(Br)o1,-25,-2.8,-2,-1,-0.1,-0.5%
O=C(COC(=O)CC1CC2CCC1C2)Nc1cc([N+](=O)[O-])ccc1F (stereo not given),1,2.2,-2,-9,-0.5,-1.3%
N#Cc1ccsc1NC(=O)CCS(=O)(=O)c1ccccc1,-6,0.9,-18,36,0.0,-0.8%
CCOc1ccccc1NC(=O)Cn1c(=O)sc2ccccc21,-1,-2.8,6,15,-0.2,-1.7%
CCOC(=O)c1c(CSc2ccccc2)n(C)c2cc(Br)c(OCC(O)CNC(CO)(CO)CO)cc12 (stereo not given),-20,-6.7,-14,22,-0.3,-1.4%
Cc1ccccc1CSc1nnnn1-c1ccc(C(N)=O)cc1,-2,0.0,-1,-1,-0.9,7.2%
Cc1sc2nc(CN3CCOCC3)nc(N3CCOCC3)c2c1C,-27,-4.1,14,-3,-0.5,2.5%
COc1ccc(C)cc1NC(=O)C(=O)NNC(=O)c1ccco1,-4,-1.2,9,22,0.3,0.7%
COc1cc(NC(=O)[C@H](C)NC(=O)N2CCn3c2nc2ccccc23)cc(OC)c1,11,0.6,-7,13,-1.3,1.1%
Cc1cccc(C(=O)Oc2ccccc2/C=N/Nc2ccc([N+](=O)[O-])cc2)c1,-2,-1.2,0,-12,0.4,u
O=C(Nc1ccc(N2CCN(Cc3ccccc3)CC2)cc1)c1cccnc1,-9,-2.3,-7,8,0.6,-1.5%
O=C(O)CSc1nnc(-c2ccccc2Br)n1-c1cccc(C(F)(F)F)c1,-9,-2.4,3,-1,0.2,3.5%
CCN1CCc2nc3sc(C(=O)Nc4cccc(Cl)c4C)c(N)c3cc2C1,x,x,x,-4,5.0,5.3%
COCCOC(=O)C1=C(N)OC2=C(C(=O)CC(C)(C)C2)C1c1ccncc1 (stereo not given),-12,-1.3,-2,-2,0.0,2.2%
O=C(CCC(=O)NNC(=S)Nc1ccccc1)NCc1ccccc1,-10,-0.3,4,7,0.6,0.1%[38.3 µM]
CCN1CCN(C(=O)c2cc(S(=O)(=O)N3CCCCC3)ccc2Cl)CC1,-15,-6.2,1,9,1.2,6.6%
N#C/C(=C(/O)c1ccc([N+](=O)[O-])o1)c1nc2ccccc2[nH]1,-3,-1.1,1,4,-0.9,2.4%
O=C1CN(C(=O)CSc2nc3ccccc3c(=O)n2CCCN2CCOCC2)c2ccccc2N1,-14,0.6,-11,31,1.3,6.0%
COc1ccc(CNC(=O)COC(=O)CCn2c(C)csc2=O)cc1OC,2,-3.2,0,0,-0.1,-1.3%
O=C(/C=C/c1ccc(F)cc1)N1CCN(c2ccccn2)CC1,-1,-1.6,-1,-9,-0.2,-1.2%
CCOc1ccc(CCNC(=O)c2cccc(-n3c(C)nc4cccnc43)c2)cc1,x,x,x,-3,-0.3,0.1%
COc1cccc(N(C(=O)Cc2cccs2)C(C(=O)NC2CCCC2)c2ccncc2)c1 (stereo not given),-6,-1.5,-4,-3,-0.2,-0.6%
CCOc1ccc(S(=O)(=O)N(CC(=O)NCCSc2ccc(C)cc2)c2ccccc2)cc1,x,x,x,-13,-0.3,7.2%
